Assay outcomes (PubChem)
SARS PLP yeast: SARS-CoV PLP inhibition in yeast. S. cerevisiae expressing SARS-CoV PLpro, growth rescue; control for the full effect not named in the record. Potency, µM (series often up to 32.9 µM), without a hit: at the top dose activity, positive = growth rescue. 330,000 tested, 0.19% active; note: 0% is about no effect; nearly all actives have a fitted effect of over 55% in size; growth read by luminescence after 48 h
RE007 growth inh: less growth of the S. pombe RE007 Vpr strain. S. pombe RE007 Vpr strain, BacTiter-Glo ATP luminescence, 24 h; control for the full effect not named in the record. Potency, µM (titrated, usually from 92.2 µM), for inactives: at the highest dose activity change, negative = less growth. 360,000 tested, 0.21% active. AID 651644; active = well fitted falling curve with a large enough effect; inconclusive = small, poorly fitted or top-dose-only effect; inactive = no such curve, though single readings can be large or run the other way;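 note: % is set by controls: 0 for no effect and ±100 for the full control effect; nearly all actives have a fitted effect of over 50% in size; the assay follows cell death caused by Vpr and the record does not say whether a fall means rescue or toxicity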
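Fission yeast strain RE007, carrying one chromosomally integrated HIV-1 vpr copy, was seeded at OD 0.01 in PMG+AL medium with 23 nL pinned compound. After 24 h at 30 °C and 99% humidity, viability was read by BacTiter-Glo luminescence.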
NS1 function inh: influenza NS1 inhibition; S. cerevisiae slowed by influenza A NS1, growth recovery by OD600; Potency, µM (top dose mostly 46.1 µM), for the others: at the top dose activity, positive = more growth; 270,000 tested, 0.4% active; AID 2326; note: actives are rising curves; nearly all actives have a fitted effect of over 50% in size
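Recovery from NS1-induced slow growth read by OD600 in budding yeast switched to galactose assay medium (pH 6.0, -URA) at 1:100 dilution. Compound 23 nl per well; the matching strain lacking NS1 serves as control.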
Cruzain inh Det: blocks cruzain activity in presence of Triton detergent. Potency, µM, for the others: max response, negative = inhibition, usual class: inhibitors. 200,000 tested, 0.43% active. P25779. purified cruzain, Z-FR-AMC fluorescence, 0.01% Triton; active = well fitted curve in the direction sought with a large enough effect; inconclusive = small, poorly fitted or top-dose-only effect, or another doubt; inactive = no such curve, though single readings can be large; an effect the other way counts as inactive or inconclusive;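 note: plate controls were neutral wells for no effect and buffer without enzyme for full effect; nearly all actives have a fitted effect of over 40% in size; top concentration of the series not given in the record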
Target sequence (P25779 123-467 limits assumed): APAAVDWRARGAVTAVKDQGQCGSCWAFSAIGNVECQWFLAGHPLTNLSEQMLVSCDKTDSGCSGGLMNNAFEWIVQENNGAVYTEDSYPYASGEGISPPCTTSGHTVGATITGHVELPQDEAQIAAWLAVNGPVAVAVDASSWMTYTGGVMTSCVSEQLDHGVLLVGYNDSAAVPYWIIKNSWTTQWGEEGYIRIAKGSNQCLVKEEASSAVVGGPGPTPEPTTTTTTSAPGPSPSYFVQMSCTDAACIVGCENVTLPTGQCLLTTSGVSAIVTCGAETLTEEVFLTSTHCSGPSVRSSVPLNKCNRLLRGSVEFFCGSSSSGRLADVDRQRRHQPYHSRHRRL
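In this qHTS format, compounds are incubated with 1.5 nM cruzain for 15 min at room temperature before 2 uM Z-FR-AMC is added. Release of AMC is followed at 360/450 nm, and progress is taken as the 60 s fluorescence difference.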
Lassa entry inh: Lassa virus entry inhibition; 300,000 tested, 1.2% active; Potency, µM (highest dose often 37.9 µM), for the others: at the highest dose activity change, negative = inhibition, usual class: inhibitors; AID 540256; Lassa virus pseudotype entry inhibition, cell reporter; control for the full effect not named in the record; active means well fitted inhibition curve with a large enough effect; inconclusive means small, poorly fitted or top-dose-only effect, or effect the other way; inactive means flat fitted curve, though single readings scatter; tested in HEK293 cells; note: % is set by controls: 0 for no effect and ±100 for the full control effect; nearly all actives have a fitted effect of over 50% in size; luciferase read-out
Cruzain noTriton: inhibitors of Trypanosoma cruzi cruzain without detergent. purified cruzain, Z-FR-AMC fluorescence, no detergent. Potency, µM, for inactives: max response, negative = inhibition, most hits filed as inhibitors. P25779. AID 1476. 200,000 tested, 2.3% active; active = well fitted curve in the direction sought with a large enough effect; inconclusive = small, poorly fitted or top-dose-only effect, or another doubt; inactive = no such curve, though single readings can be large; an effect the other way counts as inactive or inconclusive;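 note: plate controls were enzyme without inhibitor for no effect and buffer without enzyme for full effect; nearly all actives have a fitted effect of over 40% in size; top concentration of the series not given in the record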
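Detergent-free condition (0.00005% Triton X-100) in acetate buffer pH 5.5 with DTT. 1.5 nM enzyme and compound were pre-mixed 15 min, then 2 uM Z-FR-AMC substrate added; reaction progress from fluorescence change between first and third reads (60 s).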
MARV entry inh: blocks Marburg virus binding to or entry into cells; Marburg virus pseudotyped entry inhibition, cell reporter; control for the full effect not named in the record; about a third of the inactives were read at about 46 µM; Potency, µM (titrated, usually from 37.8 µM), for inactives: at the top dose activity change, negative = inhibition, usual class: inhibitors; 300,000 tested, 1.8% active; AID 540276; active = well fitted inhibition curve with a large enough effect; inconclusive = small, poorly fitted or top-dose-only effect, or effect the other way; inactive = flat fitted curve, though single readings scatter; tested in HEK293 cells; about a fifth of its hits are not listed in these tables; note: % is set by controls: 0 for no effect and ±100 for the full control effect; luciferase read-out
StopGo reporter: lowers the luciferase signal of an FMDV 2A StopGo reporter | human cells with a luciferase reporter of 2A StopGo recoding; control for the full effect not named in the record | Potency, µM (series often up to 57.9 µM), for the others: at the highest dose signal change, negative = less light | AID 1159524 | 410,000 tested, 1.2% active; active = well fitted falling curve with a large enough effect; inconclusive = small, poorly fitted or top-dose-only effect; inactive = no such curve, though single readings can be large or run the other way; tested in HEK293T cells; note: % is set by controls: 0 for no effect and ±100 for the full control effect; nearly all actives have a fitted effect of over 45% in size; luciferase light after 4 h
Active calls of the source: *; ? = inconclusive; nt = not tested or not shown; [ ] = another dose, or the depositor's remark. Unless noted, calls come from the whole dose curve; as a rule, active means well fitted rising curve with a large enough effect; inconclusive means small, poorly fitted or top-dose-only effect; inactive means no such curve, though single readings can be large or run the other way. Potency is the fitted concentration of half-maximal effect.

SMILES	SARS PLP yeast	RE007 growth inh	NS1 function inh	Cruzain inh Det	Lassa entry inh	Cruzain noTriton	MARV entry inh	StopGo reporter
Cc1ccc(NC(=O)NN2CCN(C)CC2)cc1C	0.9%	17.8%	-5.2%	nt	nt	nt	nt	?
CC(C)(C)SCCNS(=O)(=O)c1ccc(C#N)cc1	0.5%	-20.3%	1.1%	nt	5.1%	nt	5.2%	10.9%
O=C(Nc1cccc(C(=O)N2CCN(c3ccccc3)CC2)c1)c1nsc2ccccc12	nt	nt	nt	-0.4%	0.8%[46.1 µM]	?	nt	-6.4%
CCCCNC(=S)N(Cc1c(C)noc1C)c1ccccc1	19.8%	-26.1%	-7.3%	-0.9%	-4.5%	13.9%	10.5%	13.6%
CSc1nc(N)c2cn[nH]c2n1	nt	12.4%	nt	nt	1.9%	nt	-12.9%	-5.6%
O=C(CSc1nc2c(oc3ccccc32)c(=O)n1-c1ccccc1)Nc1ccccc1F	nt	nt	nt	-3.2%	nt	-27.2%	7.0%[46.1 µM]	-20.9%
COCCNC(=O)NC(=O)COC(=O)c1ccc2[nH]c3c(c2c1)CCCC3	-3.6%	17.6%	nt	nt	nt	nt	?	-13.0%
O=C(NCc1ccc(F)cc1)C1CCCN(S(=O)(=O)c2cccc3nsnc23)C1 (stereo not drawn)	2.2%	-14.3%	0.7%	5.7%	-14.8%	4.4%	-15.5%	-16.3%
CC1CCCN(C(=O)CSCC(=O)Nc2nc(-c3cccs3)cs2)C1 (stereo not drawn)	-8.8%	-2.5%	-7.5%	-4.2%	nt	1.3%	nt	-16.2%
C=CCCOc1ccccc1C(N)=O	-1.3%	10.5%	0.3%	nt	4.8%[46.1 µM]	nt	?	-6.3%
CNC(=O)N1CCC(C(=O)c2c(C)c(C)c(C)c(C)c2C)CC1	7.8%	3.8%	-2.2%	nt	nt	nt	nt	-20.5%
COc1ccc(-c2nc(C#N)c(NCC3CCCO3)o2)cc1 (stereo not drawn)	-4.2%	9.2%	-10.7%	-24.8%	12.2%	7.9%	4.2%	nt
CC1C(C)N(C(=O)CCCl)c2ccccc2N1C(=O)CCCl (stereo not drawn)	nt	11.7%	nt	nt	-8.4%[46.1 µM]	nt	-15.7%[46.1 µM]	-14.2%
NC(=O)C1(NC2CCCCC2)CCN(Cc2ccccc2)CC1	nt	-13.1%	nt	nt	-1.0%[46.1 µM]	nt	?	-8.9%
Cc1cccc(NC2=NC(=S)N(CC#N)C23CCCCC3)c1	21.3%	-8.1%	5.4%	-3.5%	7.5%	2.0%	14.4%	-8.2%
CCOc1ccc(C(CC(=O)O)NC(=O)COc2ccc3ccccc3c2)cc1OC (stereo not drawn)	-1.3%	6.6%	-2.0%	nt	nt	nt	nt	1.1%
O=C(Nc1cccnc1)c1cc(-c2ccc(Cl)c(Cl)c2)on1	-4.1%	-6.6%	-5.8%	nt	-0.1%[46.1 µM]	nt	28.4%[46.1 µM]	51.1%[activator]
COc1ccc2c(C)c(Cc3ccccc3)c(=O)oc2c1OC	-3.4%	-10.1%	-41.0%	nt	nt	nt	nt	?
C#CCOCCOCCOCCNc1nc(N2CCN(C(=O)[C@H](CCCCN)n3cc(C(N)[C@H](C)CC)nn3)CC2)nc(N2CCN(C(=O)[C@H](CCC(=O)O)n3cc(C(N)[C@H](C)CC)nn3)CC2)n1 (stereo partly drawn)	1.0%	0.2%	7.4%	nt	nt	nt	nt	4.4%
CC(C)c1ccc(-c2nn(-c3ccccc3)cc2C(=O)NCC2CCCO2)cc1 (stereo not drawn)	-5.9%	1.7%	nt	nt	?	nt	-26.3%[46.1 µM]	-9.4%
CC(=O)c1cccc(NC2c3ncccc3C(=O)N2Cc2ccco2)c1 (stereo not drawn)	-5.4%	3.7%	10.2%	7.5%	?	0.2%	?	10.3%
Clc1ccc(CN2CCNCC2)cc1	-0.9%	-8.3%	22.2%	nt	-0.9%	nt	10.6%	6.2%
Cc1cc(C)c(S(=O)(=O)NCC2CCC(C(=O)NCc3ccccn3)CC2)c(C)c1 (stereo not drawn)	-1.9%	-11.3%	nt	nt	4.1%	nt	0.5%[46.1 µM]	9.8%
N#Cc1ccc(CSc2ncnc3c2cnn3Cc2ccccc2)cc1	-2.8%	4.2%	-4.8%	-1.3%	?	-0.9%	-25.2%	?
CC1=NNC(=O)C1CC(=O)N/N=C/c1cccs1 (stereo not drawn)	0.3%	1.4%	-6.4%	nt	nt	nt	nt	-7.9%
O=C(NCc1ccco1)C(c1cccnc1)N(C(=O)Cn1nnc2ccccc21)c1ccc(F)cc1 (stereo not drawn)	0.2%	2.6%	-13.1%	-1.9%	-1.1%	-6.5%	?	10.9%
CN(CCC#N)S(=O)(=O)c1ccc2c(c1)c(=O)n(C)c(=O)n2C	3.4%	-17.2%	9.3%	-0.1%	18.2%	5.0%	4.7%	-3.7%
NC(=O)c1nc(-c2ccco2)nc2c1[nH]c(=O)n2-c1ccc(Cl)c(Cl)c1	0.8%	-4.2%	2.0%	nt	6.5%	nt	?	-2.9%
CCCCCCn1c(N(CC)CC)nc2c1c(=O)[nH]c(=O)n2C	-17.2%	23.9%	-12.9%	-4.2%	-7.9%	23.4%	-14.4%	-15.7%
O=C(Nc1ccc2c(c1)OCCO2)c1cccc(Br)c1	-20.3%	-16.5%	-86.5%	nt	-2.2%[46.1 µM]	nt	?	0.9%
CCn1nc(C(=O)Nc2ccc(Cl)c(S(=O)(=O)N3CCOCC3)c2)c2ccccc2c1=O	-0.4%	-2.1%	nt	nt	?	nt	-16.7%[46.1 µM]	?
O=C(CCCCCN1C(=O)c2ccccc2C1=O)Nc1ccccc1F	0.6%	6.7%	-0.7%	nt	3.2%[46.1 µM]	nt	-6.4%[46.1 µM]	-2.8%
Cc1c(/C=N/NC(=O)c2cccnc2)c2ccccc2n1Cc1ccccc1	5.0%	-15.9%	nt	nt	?	nt	-25.6%[46.1 µM]	14.1µM*
COc1ccc(N2C(=O)[C@H]3CCC=C[C@H]3[C@@H]2c2ccccc2Br)cc1	-47.4%	-12.0%	nt	-0.8%	nt	9.6%	nt	?
CC(=NCCCN(C)C)C1=C(O)c2ccccc2C1=O	-0.9%	14.4%	-3.2%	-0.9%	13.3%	-5.3%	2.7%	13.0%
C1CCC2(CC1)C1=C(CCCC1)Nc1nnnn12	-4.4%	0.9%[3.69 µM]	-13.2%	7.1%	-6.4%	-1.1%	-9.5%	-21.2%
NS(=O)(=O)CCCc1ccccc1	9.2%	-9.1%	-10.9%	nt	nt	nt	nt	-14.6%
COc1ccc(-c2nnc3sc(-c4ccccc4OC)nn23)cc1	1.8%	16.2%	6.7%	-0.5%	-2.0%	?	-0.2%	12.3%
CCOC(=O)c1ccc(NC(=O)NCc2ccn(CC)n2)cc1	-1.5%	-9.9%	-6.2%	-0.7%	2.4%	14.1%	10.9%	-10.0%
CC1CCN(c2ccccc2NC(=O)c2ccc(F)cc2)CC1	-41.3%	-2.0%[3.69 µM]	-10.4%	-7.9%	0.1%	-6.8%	-11.5%	-29.8%
Cc1nc(NC(N)=S)sc1C(=O)Nc1ccccc1	?	-12.4%	2.4%	-0.3%	-3.1%	-4.4%	15.5%	5.9%
CNc1nc(-c2ccc(OC)cc2)c(-c2ccc(OC)cc2)s1	-15.4%	-7.1%	-10.2%	nt	22.2%[46.1 µM]	nt	1.1%[46.1 µM]	-24.6%
O=C(N/N=C\c1cccc([N+](=O)[O-])c1O)C1COc2ccccc2O1 (stereo not drawn)	12.6µM*	?	-38.2%	-9.3%	-19.4%	-8.5%	-14.3%	19.7%
CC1CC(=O)c2cn3c(nc2C1)nc1ccccc13 (stereo not drawn)	0.0%	9.0%	-5.0%	4.1%	-18.0%	0.4%	-1.1%	43.1%[activator]
Cc1cc(C)nc(SCc2cc(=O)c(OC(=O)c3ccc(S(=O)(=O)N(C)C)cc3)co2)n1	-45.5%	21.9%	-35.2%	-4.3%	1.4%	?	-12.4%	-11.7%
Fc1ccc(-c2nc3ccccc3c3nc4ccccc4n23)cc1	-7.5%	-4.1%	-32.5%	-5.0%	3.4%	12.2%	-3.1%	0.0%
Cc1cc(C(=O)OCC(=O)Nc2c(F)cccc2F)c(C)n1C1CC1	1.8%	2.3%	nt	nt	12.7%	nt	-3.3%	-11.1%
CCCCn1c(SCC(=O)Nc2nnc(C)s2)nnc1-c1ccncc1	-0.3%	3.8%	16.8%	nt	nt	nt	nt	-7.6%
CCN(CC)S(=O)(=O)c1ccc(C(C)NC(=O)Cc2c[nH]c3ccccc23)cc1 (stereo not drawn)	0.3%	-0.9%	2.1%	nt	2.59µM*	nt	-19.3%	-22.0%
CCCCC(=O)N1CCc2cc(OC)c(OC)cc2C1COc1ccc(C(=O)OCC)cc1 (stereo not drawn)	nt	nt	nt	0.1%	-26.0%[46.1 µM]	?	nt	?
Cc1cc(=O)n2c(n1)NC(=NCc1ccccc1)NC2c1ccccc1 (stereo not drawn)	-0.3%	9.9%	0.7%	nt	-1.3%	nt	-3.9%[46.1 µM]	-11.5%
CCC(C)[C@@H](N)C(=O)N/N=C/c1cccc2nccnc12 (stereo partly drawn)	-1.3%	0.7%	0.3%	nt	-6.6%	nt	0.1%	-11.8%
CCCC(=O)Nc1nnc(SCC(=O)Nc2nc(C)cs2)s1	-6.1%	1.9%	11.7%	nt	2.9%	nt	-0.2%	-4.0%
Cc1cccc(NCC(=O)c2c(N)n(C)c(=O)n(C)c2=O)c1C	-0.1%	-2.5%	-3.5%	nt	nt	nt	nt	17.7%
CCCCn1c(=O)nc2n(-c3ccccc3)c3ccccc3cc-2c1=O	0.7%	-7.2%	3.2%	-14.1%	-3.8%	-3.9%	-0.4%	-16.4%
Nc1cc(N)c2c(c1)C(=O)c1ccccc1-2	nt	1.5%	nt	nt	11.4%[46.1 µM]	nt	?	25.2%
COc1ccc(S(N)(=O)=O)cc1C(=O)N1CCCC1	-1.4%	3.6%	8.1%	nt	-13.7%	nt	8.0%[46.1 µM]	8.8%
COC(=O)c1ccc(/C=N/NC(=O)CNc2cccc(C)c2)cc1	-2.1%	-11.1%	0.6%	nt	?	nt	2.5%[46.1 µM]	-3.9%
